NPYLR7 agonist – activates Aedes aegypti NPYLR7 receptor | 270,000 compounds, 0.15% hits | HEK293T NPYLR7/Galpha15, GCaMP6s calcium fluorescence | activation, % at 10 µM | AID 1259423; in the data active = activation above about 40%;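 also: 0% = vehicle and 100% = reference agonist at the receptor; some compounds past the cut are filed as inactive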
NPYLR7 agonist max-min – recorded beside NPYLR7 agonist, whose call it bears; activation, %; measured here: Max-Min RFU normalised activation; some inactives read as strong as hits;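 span of the calcium signal over five minutes; 0% = vehicle and 100% = native peptide agonist; compound fluorescence can raise it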
The depositor's hits bear a star; & = joins results of further samples. An excerpt, so the mix of outcomes need not match the whole.

smiles	NPYLR7 agonist	NPYLR7 agonist max-min
Cc1ccc(-c2csc3ncc(C(=O)NOCc4ccccc4)c(=O)n23)cc1	-6	-6
O=C(O)C1COC2(CCN(C(=O)C3CCC3)CC2)N1C(=O)c1ccccc1 (stereo not given)	9	8
COc1ccc(-c2cc(C(=O)NCCC(c3ccccc3)c3ccccc3)n(-c3cc(C)ccc3C)n2)cc1	-1	8
O=c1[nH]c(=S)c2c(n1C1CC1)CCC2	3	6
O=C1CSc2ccc(C(=O)NCC#Cc3cccc(C(F)(F)F)c3)cc2N1	-1	-3
CS(=O)(=O)NCC1CCN(Cc2cc3ccccc3[nH]c2=O)C1 (stereo not given)	-17	-16
COCCn1c(=NC(=O)c2ccc(S(C)(=O)=O)cc2)sc2c(OC)ccc(OC)c21	0	-2
Cc1nc(-c2ccccc2)sc1C(=O)Nc1ccc(-c2ccc(N3CCOCC3)nn2)cc1	-3	-4
Cc1nc(CCNC(=O)CC2NC(=O)c3ccccc32)nc2c1CCCC2 (stereo not given)	11	5
O=C(Nc1ccc2c(c1)S(=O)(=O)C=C2)C1CC1c1cccc(F)c1 (stereo not given)	7&6	6&5
N#CCS(=O)(=O)Cc1ccc(C(=O)O)cc1	10	10
CCCCN(CC(=O)N1CC(=O)N(c2cccc(C)c2)C1)C(=O)c1ccccc1OC	0	3
CC1=C(C(=O)N2CCc3ccccc3C2)C(c2nc[nH]c2C)NC(=O)N1 (stereo not given)	13	11
Cc1nnc(NC(=O)c2ccc(C(F)(F)F)cc2)o1	1	4
CSc1nnc2c(n1)OC(c1ccco1)Nc1ccc(Br)cc1-2 (stereo not given)	1	0
Cn1cccc1P(=Nc1ccccc1)(N1CCOCC1)N1CCOCC1	1&9	-3&6
Cc1ccc(CN(Cc2ccc(F)cc2)C(=O)CNCc2ccco2)s1	-6	-16
COc1ccc(C(=O)N2CC[C@@H](N)[C@@H](OC)C2)c(OC)c1OC	-1	-5
N#CCc1ccc(OCC(O)Cn2cnc3ccc(Br)cc3c2=O)cc1 (stereo not given)	0	0
O=C(NCc1nc(-c2ccccc2)no1)c1ccc2c(c1)ncn2-c1ccccc1	3	3
CCOc1nn(CC)cc1C(=O)N1CCN(C(=O)c2ccco2)CC1	4	3
COc1ccc(Nc2nc(NCCC(C)C)nc3c2cnn3-c2ccccc2)cc1	0	-1
COc1ccc(NC(=O)c2ncc(-c3ccccc3)o2)cc1N1CCCCC1=O	-2	-3
COc1ccc(-c2nc(CNc3ccc(C)c(F)c3)no2)cc1	-1	-1
O=C1CC(NCc2cc(F)ccc2-n2cccn2)CN1Cc1cccc(F)c1 (stereo not given)	-1	-5
CCOc1ccc(NC(=O)CSc2nc3c([nH]c4ccccc43)c(=O)n2C)cc1	1	16
Cc1cc(C)c(C(=O)N2CSCC2C(=O)NC(C)C(C)C)[nH]1 (stereo not given)	-1	-3
CC(C)Oc1ccc(C(=O)n2sc(=O)c3ccccc32)cc1	-5	-6
CCN(CC)c1ncccc1CNC(=O)c1c(Cl)c(C)nn1C	3	2
CCOc1ccc(NC(=O)CSc2nccn3nc(-c4ccc(Cl)cc4)cc23)cc1	2	-4

Structural class: those above with a COOH group
smiles	NPYLR7 agonist	NPYLR7 agonist max-min
O=C(O)C1COC2(CCN(C(=O)C3CCC3)CC2)N1C(=O)c1ccccc1 (stereo not given)	9	8
N#CCS(=O)(=O)Cc1ccc(C(=O)O)cc1	10	10

Some of the entries so far, with values under each structure:
Screens in order: NPYLR7 agonist | NPYLR7 agonist max-min
CS(=O)(=O)NCC1CCN(Cc2cc3ccccc3[nH]c2=O)C1 (stereo not given)
 : -17 | -16
COCCn1c(=NC(=O)c2ccc(S(C)(=O)=O)cc2)sc2c(OC)ccc(OC)c21
 : 0 | -2

Other entries follow.
smiles	NPYLR7 agonist	NPYLR7 agonist max-min
COc1ccccc1C(=O)Nc1cccc(NC(=O)CC(C)n2cccn2)c1 (stereo not given)	8	4
COCCC1CCCCN1Cc1nc(-c2ccc(C(F)(F)F)cc2)oc1C (stereo not given)	6	2
CCOc1ccc(-c2cc(=O)n(CC(=O)Nc3ncccc3C)cn2)cc1	18	9
O=C1/C(=C\c2cccc(F)c2)CSc2c(F)cccc21	4	0
CC(C(=O)Nc1c(F)cccc1F)N1CCN(c2nccs2)CC1 (stereo not given)	-1	-1
CC(=O)c1ccc(N2CCOC(c3ccc(Cl)c(Cl)c3)C2)nc1 (stereo not given)	4	1
COc1ccc(C)cc1N1C(=O)CSC1c1ccccc1NC(=O)c1cccc(Cl)c1 (stereo not given)	10	12
COCCN(CC(=O)Oc1ccccc1P(=O)(O)O)Cc1ccccc1	3	9
CCn1c(C2CCCNC2)nn(Cc2cnn(-c3ccccc3F)c2)c1=O (stereo not given)	12	6
CC(C)c1cc(C(=O)N2CC=C(n3c(=O)[nH]c4ccccc43)CC2)n(C)n1	-4	-5
CCOc1ccccc1Nc1ncnc(N)c1[N+](=O)[O-]	1	3
O=C(Nc1ncc2c(n1)CCC1(C2)OCCO1)C1COc2ccccc2O1 (stereo not given)	0	0
COc1ccc(-c2nc(N)nc(C(F)(F)F)c2-c2cscn2)c(O)c1	-10	-10
COC(CNc1ncnc2c1c(-c1ccccc1)cn2-c1ccc(Br)cc1)OC	0	0
CCOC(=O)c1nn(-c2ccc(F)cc2)c(=O)cc1NCCC(c1ccccc1)c1ccccc1	-3	-5
O=C(O)c1ccc(OCc2ccoc2C(=O)O)cc1	-2	-6
c1csc(-c2noc(CN3CCN(Cc4ccc5c(c4)OCO5)CC3)n2)c1	-5	-13
O=C(c1ccc2nc(C3CCCCC3)oc2c1)N1CCN(c2ccccn2)CC1	16	7
Cn1cc(C(=O)N2CCCCC2)c2[nH]c(=O)n(-c3ccc(Cl)cc3)c(=O)c21	3	1
COc1ccc(C(=O)N2CCCC(C(=O)NC3CCCC[C@H]3N(Cc3ccc(Cl)cc3)C(=O)c3ccccc3)C2)cc1 (stereo not given in full)	23	21
Cc1ccc(Cl)c(OCc2nc(N)nc(N)n2)c1	1	14
O=c1c2ccccc2nnn1CSc1nc2ccccc2c(=O)n1Cc1ccco1	-2	-5
CC(Nc1cnn(-c2ccccc2)c(=O)c1Cl)c1ccc2c(c1)CCO2 (stereo not given)	5	4
CC1CCN(CC(=O)Nc2ccc([N+](=O)[O-])cc2)CC1	-2	-6
S=C(Nc1ccccc1)Nc1ccccn1	2	1
CCc1noc(-c2ccc(CCNC(=O)NC3CC3)cc2)n1	2	12
CCOC(=O)C1CCN(C(=O)c2coc(COc3cccc(F)c3)n2)CC1	6	8
COCCCN(CC(=O)N(CCc1c[nH]c2ccccc12)Cc1ccc(F)cc1)C(=O)Cc1ccc(F)cc1	12	17
O=C(Cn1nc(-c2cccs2)oc1=O)Nc1cccc(Cl)c1	2	2
COCCC1CCCCN1C(=O)c1cc(C)ccc1Cl (stereo not given)	3	0
O=S(=O)(c1ccc(NCC2COc3ccccc3O2)cc1)C(F)(F)F (stereo not given)	1	1
Cc1cnc(CN(C)C(=O)CN(c2cccc(F)c2)S(C)(=O)=O)[nH]1	-7	-10
O=S(=O)(Nc1ccc2cn[nH]c2c1)c1ccc(S(=O)(=O)N2CCOCC2)cc1	5	7
CC1(C(=O)NCc2cccc3ccccc23)CCN1C(=O)CCc1ccccc1 (stereo not given)	7	4
N#Cc1ccc(N2CCC(N3CCC(OCCN4CCOCC4)CC3)C2=O)cc1 (stereo not given)	4	1
CCC(CO)N(Cc1ccsc1)C(=O)c1cccc(C)c1Cl (stereo not given)	21	13
CCc1ccc(-n2c(=O)c3ccccc3n(Cc3nc(-c4cccs4)no3)c2=O)cc1	-2	-5
O=C(c1ccnc2ccccc12)N(CC(F)F)C1CC1	1	0
CC1CCCCC1N(C)C(=O)c1cccc2cn[nH]c12 (stereo not given)	-4	-3
Cc1cn(CC(=O)NC(C)CN2CCc3ccccc3C2)c(=O)[nH]c1=O (stereo not given)	10	7
CC(C)Cn1c(CN2CCN(c3ncc(F)cn3)CC2)nc2ccccc21	-1	-1
CCn1cnnc1CCNC(=O)c1ccc(F)c(Br)c1	3&7	3&115
O=c1oc2ccccc2cc1-c1cn2ccccc2n1	-2	-2
CCNC(C)c1cccc(O)c1 (stereo not given)	0	-1
COc1ccc(OC)c(C(O)CNC(=O)CN)c1 (stereo not given)	-11&-2&-1	-17&-8&-6
COc1cccc(CN2CCn3nc(C(=O)N4CCN(C(=O)c5ccco5)CC4)cc3C2=O)c1	3	-5
CCN1C(=O)N(CCCc2cccnc2)C(=O)C12CCN(Cc1cc3ccccc3s1)CC2	10	-2
COc1ccc2c(C)nc(N3CCC(C(=O)NCC4CC5C=CC4C54CC4)CC3)nc2c1 (stereo not given)	25	6
CCOC(=O)c1c(C)nn(-c2ccc(C(=O)NCCc3cccc(OC)c3)cc2)c1C	1	1
CCCS(=O)(=O)N1CCC2(CCCN(CCC3CCCCC3)C2=O)C1 (stereo not given)	19	11
Cc1ccc(C2=NN(C(=O)CN(C)c3ccccc3)C(c3cccc(F)c3)C2)c(C)c1 (stereo not given)	6	6
CCOC(=O)C(c1cccc(OC)c1)C1C=CC(NC(=O)c2ccc(F)c(F)c2)C1 (stereo not given)	2	-1
COc1ccccc1CN1C(=O)O[C@@H]2CN(S(=O)(=O)N(C)C)C[C@@H]21	5	0
COC(=O)c1nnn(-c2ccc(C)cc2)c1C(=O)OC	12	16
Cn1cc(C(=O)NCc2cccnc2)c2n[nH]c(=O)c-2c1	3	1
CCOc1ccc(S(=O)(=O)N(C)C)c2ccccc12	-3	-10
COc1ccc(OC)c(C2CCN(Cc3ncc[nH]3)C2)c1 (stereo not given)	-2	-7
COc1ccc(C=NOCc2ccc(Cl)cc2Cl)c(OC)c1	5	4
COc1cc(Nc2c(C(=O)N3CCCC(C)C3)cnc3nc(C)ccc23)cc(OC)c1OC (stereo not given)	-2	-4
OC(COc1cccc(CN2CCSCC2)c1)CN1CCOCC1 (stereo not given)	6	4

Single records, from the list above. Order of values: NPYLR7 agonist | NPYLR7 agonist max-min
CCOc1ccc(S(=O)(=O)N(C)C)c2ccccc12 is listed with -3 | -10
O=c1oc2ccccc2cc1-c1cn2ccccc2n1 is listed with -2 | -2
O=S(=O)(Nc1ccc2cn[nH]c2c1)c1ccc(S(=O)(=O)N2CCOCC2)cc1 is listed with 5 | 7

(next part)
smiles	NPYLR7 agonist	NPYLR7 agonist max-min
CC(C)n1cc(C2c3[nH]c4ccccc4c3CCN2Cc2cnn(-c3ccccc3)c2)cn1 (stereo not given)	-6&20	-8&16
Cc1ccc(OCCN(C)Cc2nc(COc3ccccc3)no2)cc1	-1	-8
CC1SC(c2ccccc2Cl)N(CCC(=O)O)C1=O (stereo not given)	0	-4
COC(=O)c1ccc(CC2(C)C(=O)Nc3ccccc32)o1 (stereo not given)	0	5
CC(C)N1CC(C(=O)N2CC(C)(C)C2(C)C)CC1=O (stereo not given)	3	1
C=CCNc1nc(N)c([N+](=O)[O-])c(Nc2ccccc2F)n1	2	3
CCS(=O)(=O)Oc1ccc(CN(C(=O)Nc2ccccc2F)C(C)C)cc1	12	18
CC(C)=C1C2C=CC1C1C(=O)N(c3cc([N+](=O)[O-])ccc3Cl)C(=O)C21 (stereo not given)	-1	-1
NC(=O)c1nc(-c2ccc(Cl)c(Cl)c2)nc2c1[nH]c(=O)n2-c1ccc2c(c1)OCO2	-8	-9
Cn1ccnc1-c1ccc(NC(=O)CNC(=O)c2ccccc2)cc1	5	3
Cc1c(Cl)cccc1N1CN(C(=O)CN(Cc2ccccc2)C(=O)c2ccc(C(F)(F)F)cc2)CC1=O	-3	5
CC(=O)OC(C)(C)C(=O)NCc1cccc(-c2ncc(-c3ccccc3)[nH]2)c1	19	20
COc1ccccc1/C=C/C=C1\N=C(c2ccc(C)c(C)c2)OC1=O	-2	-8
O=C1c2ccccc2NC2(CCCCC2)N1N=C1CCCCC1	1	1
CCOc1cccc(C(=O)c2ccc(O)c(O)c2O)c1	-3	-5
COc1ccc2c(c1)-c1sc(C(=O)NCc3ccc(Cl)cc3)cc1CC2	2	1
